KCNK3 inh: human KCNK3 channel inhibitors, primary screen, CHO cells, FluxOR thallium flux, B-score; FluxOR fluorescence; stronger effect = lower value; 340,000 compounds, 0.84% hits; B-score at 10 µM;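 active = B-score under library mean minus 4 SD, starting fluorescence ratio at most library mean plus 5 SD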;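 also: more negative B-score means stronger inhibition of thallium flux through KCNK3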
PolyA inh: polyadenylation inhibitors in yeast reporter cells, primary screen, luminescence, S. cerevisiae. S. cerevisiae SKY197-pL101 polyadenylation reporter, beta-gal luminescence; efflux-impaired pdr1/pdr3 knockout yeast; score 100 = 6 SD above DMSO. calls only at 12 µM. 300,000 compounds, 0.02% hits;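 active = lowest replicate activity score at least 50, where 100 means six control SD above control mean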;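 also: yeast exposed to compound for 9 h at 30 °C; higher score means more reporter readthrough which indicates perturbed polyadenylation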
KCNQ1 block: inhibitors of human KCNQ1 channel, primary screen, cell-based, thallium flux, high-throughput. Potassium voltage-gated channel subfamily KQT member 1 (Homo sapiens), P51787. AID 2642, 2010. CHO-K1 KCNQ1, FluxOR thallium flux fluorescence; stronger effect = higher value. 310,000 compounds, 1.3% hits. B-score at 10 µM;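 active = compounds whose thallium flux B-score, printed positive for inhibition, exceeds three library SD while starting fluorescence stays within three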;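 also: channel opened by potassium depolarization with thallium stimulus after 20 min compound exposure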
hERG rescue: hERG rescue from dofetilide block, primary screen, cell-based, CHO-hERG, FluxOR thallium flux, dofetilide IC70 | dofetilide IC70 present | 310,000 compounds, 0.51% hits | activation (rescue from dofetilide block), less the hit threshold, % at 10 µM | Voltage-gated inwardly rectifying potassium channel KCNH2 (Homo sapiens), Q12809;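 active = activation above the mean of controls blocked by dofetilide plus 5 SD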;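 also: thallium influx through hERG after potassium depolarization seen as dye fluorescence rise; in these data hits start at about 4.7%; inactives centre near -7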
Target sequence (Q12809 whole entry, looked up): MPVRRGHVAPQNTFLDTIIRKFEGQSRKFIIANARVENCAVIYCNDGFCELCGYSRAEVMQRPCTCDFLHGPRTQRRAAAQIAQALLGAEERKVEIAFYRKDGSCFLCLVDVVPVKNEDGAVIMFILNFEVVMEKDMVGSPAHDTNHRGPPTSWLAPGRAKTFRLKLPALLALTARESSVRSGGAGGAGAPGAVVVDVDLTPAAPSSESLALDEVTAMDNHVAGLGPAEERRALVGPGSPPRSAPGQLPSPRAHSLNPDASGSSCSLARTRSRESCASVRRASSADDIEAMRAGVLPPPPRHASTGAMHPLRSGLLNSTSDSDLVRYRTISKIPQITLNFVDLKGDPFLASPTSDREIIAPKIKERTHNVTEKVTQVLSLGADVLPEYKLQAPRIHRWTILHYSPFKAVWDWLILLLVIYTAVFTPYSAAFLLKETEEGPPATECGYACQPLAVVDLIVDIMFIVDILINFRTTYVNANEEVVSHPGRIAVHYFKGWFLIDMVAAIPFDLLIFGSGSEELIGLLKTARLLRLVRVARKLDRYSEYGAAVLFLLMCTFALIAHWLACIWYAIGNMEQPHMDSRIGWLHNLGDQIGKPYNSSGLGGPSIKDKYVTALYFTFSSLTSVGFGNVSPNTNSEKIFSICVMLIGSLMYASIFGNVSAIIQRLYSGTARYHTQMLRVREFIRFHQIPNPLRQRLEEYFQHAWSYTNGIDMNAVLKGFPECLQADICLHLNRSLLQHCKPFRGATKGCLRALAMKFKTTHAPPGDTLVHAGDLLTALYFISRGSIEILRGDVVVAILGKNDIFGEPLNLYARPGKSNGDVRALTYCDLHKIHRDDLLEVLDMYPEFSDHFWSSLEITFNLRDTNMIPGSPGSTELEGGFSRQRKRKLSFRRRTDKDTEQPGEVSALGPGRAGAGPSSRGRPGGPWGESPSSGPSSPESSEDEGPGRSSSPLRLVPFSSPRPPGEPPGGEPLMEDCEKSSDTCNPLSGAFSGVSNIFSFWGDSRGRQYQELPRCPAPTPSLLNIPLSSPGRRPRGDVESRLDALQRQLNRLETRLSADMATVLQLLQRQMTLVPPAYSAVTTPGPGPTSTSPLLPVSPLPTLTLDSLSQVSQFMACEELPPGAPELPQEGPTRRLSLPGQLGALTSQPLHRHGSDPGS
GSK3beta inhib: human GSK3beta kinase inhibitors, primary screen, biochemical, cell-free homogeneous, HTS; GST-GSK3beta kinase, ADP-Glo luminescence, 60 min; stronger effect = lower value; 300,000 compounds, 0.038% hits; activity score (negative = inhibition), % at 10 µM; Glycogen synthase kinase-3 beta (Homo sapiens), P49841;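 active = more than half of replicate wells score below -50%, meaning over 50% inhibition versus plate controls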;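 also: 0% = median DMSO wells and -100% = median GW8510 positive control wells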
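Test system: GST-fused GSK3beta enzyme, cell-free | Quantity: 1.6 ng GST-GSK3beta enzyme per well | Reagent: 25 µM ATP with peptide substrate | Schedule: 60 min enzyme reaction, room temperature | Signal: Luminescent ADP-Glo measurement of ADP formed | Read-out basis: Score relative to plate controls | Control set: DMSO and 20 µM GW8510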
Dyrk1A ADPGlo: rat Dyrk1A kinase inhibitors, primary screen, biochemical, single point, plate reader; 310,000 compounds, 0.43% hits; ADP-Glo luminescence, NFATc1 peptide; AID 504441, 2011; inhibition, % at 12.5 µM; in the data active = inhibition above about 50%;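 also: plate controls were vehicle with enzyme for no effect and no enzyme for full effect; many of its hits are not listed in these tables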
GSK3A inh: blockers of GSK3A enzyme activity – biochemical, luminescence, cell-free homogeneous, HTS, primary screen | GSK-3 alpha kinase, ADP-Glo luminescence, 60 min | inhibition, % at 10 µM | 320,000 compounds, 0.1% hits | Glycogen synthase kinase-3 alpha (Homo sapiens), P49840;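 in the data active = inhibition above about 50%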;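 also: GST-tagged GSK-3 alpha with peptide substrate and 25 µM ATP; 0% = DMSO neutral wells and 100% = GW8510 positive control wells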
RGS4 pot: RGS4 potentiators or activators, primary screen, cell-based, HEK293 M3R inducible RGS4, calcium flux. carbachol calcium flux Fluo4; stronger effect = lower value. B-score at 10 µM. 310,000 compounds, 0.92% hits;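 active = B-score of the integrated calcium signal more than 4 SD below the library mean, with starting fluorescence not abnormally high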;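 also: negative B-score means reduced calcium response which marks RGS4 activation or potentiation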
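System: HEK293 FlpIn-TREx cells, stable M3R, doxycycline-inducible RGS4. Timing: overnight RGS4 induction, 30 min dye load 37 °C, 20 min compound RT. Also added: carbachol, ECmax concentration. Measured by: Fluo4 fluorescence kinetic imaging of calcium. Evaluation: integrated calcium ratio converted to B score.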
RGS4 inh: RGS4 inhibitors, primary screen, cell-based, HEK293 M3R inducible RGS4, calcium flux. Regulator of G-protein signaling 4 (Homo sapiens), P49798. Fluo-4 calcium flux; stronger effect = higher value; triggered by carbachol at its EC20. B-score at 10 µM. 310,000 compounds, 0.45% hits;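 active = B-score, a plate-corrected calcium signal, over three deviations above library mean, with baseline fluorescence within five deviations of library mean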;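 also: RGS4 expression induced by doxycycline in cells with stable M3 receptor; B-score is computed from the integrated fluorescence ratio over baseline after carbachol; higher B-score means a larger calcium signal and so more RGS4 inhibition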
KCNQ1 act: potentiators or activators of KCNQ1 channel, primary screen, cell-based, thallium flux, high-throughput. 310,000 compounds, 0.35% hits. Potassium voltage-gated channel subfamily KQT member 1 (Homo sapiens), P51787. CHO-K1 KCNQ1, thallium flux FluxOR fluorescence; stronger effect = higher value. B-score at 10 µM;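 active = fluorescence ratio B-score, a plate-corrected score, at least three library SD, with initial intensity B-score within 5 SD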
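System: Stable KCNQ1 CHO-K1 line | Incubation: 90 min dye loading and 20 min compound exposure, both at room temperature | Measure: Ratio B score | Medium: Assay buffer for compound exposure, DMSO matched across wells | Compound dosing: Single-concentration screen | Probe or stimulus: K+/Tl+ depolarizing stimulus | Measured by: Kinetic FluxOR fluorescence, 10 s baseline plus 110 s post-stimulus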
* hit, by the source's call.

For NC(=S)N/N=C/c1ccccc1OCCSc1ccc(Cl)cc1 the results were KCNK3 inh inactive, PolyA inh inactive, KCNQ1 block inactive, hERG rescue -11, GSK3beta inhib 1, Dyrk1A ADPGlo 3, RGS4 pot inactive, RGS4 inh inactive and KCNQ1 act inactive.
`Cc1ccccc1-c1nc(CSc2nc3c(c(=O)[nH]2)CCC3)c(C)o1` gave KCNK3 inh inactive, PolyA inh inactive, KCNQ1 block inactive, hERG rescue -6, GSK3beta inhib 0, Dyrk1A ADPGlo 16, GSK3A inh -3, RGS4 pot inactive, RGS4 inh inactive and KCNQ1 act inactive.
Screening COC(=O)C(C)N(C(=O)c1cccc(Cl)c1)c1c(C)cccc1C (configuration not stated) returned KCNK3 inh inactive, PolyA inh inactive, KCNQ1 block inactive, hERG rescue -8, GSK3beta inhib 1, Dyrk1A ADPGlo -8, GSK3A inh -4, RGS4 pot inactive, RGS4 inh inactive and KCNQ1 act inactive.
`CCn1nc(C)cc1C(=O)N1CCc2c([nH]c3ccccc23)C1c1cc(F)ccc1F` (configuration not stated) gave KCNK3 inh inactive, PolyA inh inactive, KCNQ1 block inactive, hERG rescue -5, GSK3beta inhib -5, Dyrk1A ADPGlo 4, GSK3A inh -1, RGS4 pot inactive, RGS4 inh inactive and KCNQ1 act inactive.
COc1ccccc1CNC(=O)C1(c2ccc(Cl)cc2)CC1 was read as KCNK3 inh inactive, PolyA inh inactive, KCNQ1 block inactive, hERG rescue -11, GSK3beta inhib -2, Dyrk1A ADPGlo -3, GSK3A inh -1, RGS4 pot inactive, RGS4 inh inactive and KCNQ1 act inactive.
CCN(CC(O)Cn1c2ccccc2c2ccccc21)S(=O)(=O)c1ccc(F)cc1 (configuration not stated) was read as KCNK3 inh inactive, KCNQ1 block inactive, hERG rescue -10, GSK3beta inhib -15, Dyrk1A ADPGlo -1, GSK3A inh 0, RGS4 pot inactive, RGS4 inh inactive and KCNQ1 act inactive.
Screening CC(C)Oc1cccc(C(=O)C2CCCN(Cc3cnn(C(C)C)c3)C2)c1 (configuration not stated) returned KCNK3 inh inactive, PolyA inh inactive, KCNQ1 block inactive, hERG rescue -9, GSK3beta inhib 0, Dyrk1A ADPGlo 0, GSK3A inh -1, RGS4 pot inactive, RGS4 inh inactive and KCNQ1 act inactive.
Screening CSc1ccccc1NC(=O)CSCc1ccc(Br)cc1 returned KCNK3 inh inactive, PolyA inh inactive, KCNQ1 block inactive, hERG rescue -4, GSK3beta inhib 1, Dyrk1A ADPGlo 5, GSK3A inh 3, RGS4 pot inactive, RGS4 inh inactive and KCNQ1 act inactive.
Screening CC(C)CNC(C(=O)Nc1ccc([N+](=O)[O-])cc1Br)c1ccccc1 (configuration not stated) returned KCNK3 inh inactive, PolyA inh inactive, KCNQ1 block inactive, hERG rescue -13, GSK3beta inhib -1, Dyrk1A ADPGlo -86, GSK3A inh 1, RGS4 pot inactive, RGS4 inh inactive and KCNQ1 act inactive.
`CCOC(=O)c1cnc2ccc(OCC)cc2c1NCc1ccccc1` gave KCNK3 inh inactive, PolyA inh inactive, KCNQ1 block inactive, hERG rescue -8, GSK3beta inhib 2, Dyrk1A ADPGlo 16, GSK3A inh -1, RGS4 pot inactive, RGS4 inh inactive and KCNQ1 act inactive.
Screening COc1cccc2sc3ccc(C#Cc4ccc(N)cc4)cc3c(=O)c12 returned KCNK3 inh inactive, PolyA inh inactive, KCNQ1 block inactive, hERG rescue -3, GSK3beta inhib 1, Dyrk1A ADPGlo 1, GSK3A inh -4, RGS4 pot inactive, RGS4 inh inactive and KCNQ1 act inactive.
`COC(C(=O)Nc1ccc(S(=O)(=O)Nc2ccc(C)c(C)c2)cc1)c1ccccc1` (configuration not stated) gave KCNK3 inh inactive, PolyA inh inactive, KCNQ1 block inactive, hERG rescue -6, GSK3beta inhib -1, Dyrk1A ADPGlo 7, GSK3A inh -1, RGS4 pot inactive, RGS4 inh inactive and KCNQ1 act inactive.
`COC(=O)N/N=C\c1cc(Br)ccc1OCc1ccccc1` gave KCNK3 inh inactive, PolyA inh inactive, KCNQ1 block inactive, hERG rescue -6, GSK3beta inhib 2, Dyrk1A ADPGlo 14, RGS4 pot inactive, RGS4 inh inactive and KCNQ1 act inactive.
C/C(=C\C(=O)c1ccc(Br)cc1)NCc1ccc2c(c1)OCO2 was read as KCNK3 inh inactive, PolyA inh inactive, KCNQ1 block 8*, hERG rescue -3, GSK3beta inhib -4, Dyrk1A ADPGlo -2, GSK3A inh -4, RGS4 pot inactive, RGS4 inh inactive and KCNQ1 act inactive.
For CCCCNC(=O)c1onc(CSc2cccc(OC)c2)c1C(=O)NCCCC the results were KCNK3 inh inactive, PolyA inh inactive, KCNQ1 block inactive, hERG rescue -8, GSK3beta inhib 5, Dyrk1A ADPGlo 10, GSK3A inh -7, RGS4 pot inactive, RGS4 inh inactive and KCNQ1 act inactive.
`COc1cc(OC)c(OC)cc1CN1CCCC(C(=O)c2sccc2C)C1` (configuration not stated) gave KCNK3 inh inactive, PolyA inh inactive, KCNQ1 block inactive, hERG rescue -12, GSK3beta inhib 2, Dyrk1A ADPGlo 18, GSK3A inh 0, RGS4 pot inactive, RGS4 inh inactive and KCNQ1 act inactive.
Screening CCOC(=O)[C@@H]1[C@H]2COc3ccc(Br)cc3[C@H]2N2C(=O)N(c3ccc(C)cc3)C(=O)[C@]12C returned KCNK3 inh inactive, PolyA inh inactive, KCNQ1 block inactive, hERG rescue -7, GSK3beta inhib 2, Dyrk1A ADPGlo -7, GSK3A inh -5, RGS4 pot inactive, RGS4 inh inactive and KCNQ1 act inactive.
c1cc(C2CCCCC2)ccc1Oc1nc(N2CCOCC2)nc(N2CCOCC2)n1 was read as KCNK3 inh inactive, PolyA inh inactive, KCNQ1 block inactive, hERG rescue -13, GSK3beta inhib 0, Dyrk1A ADPGlo -7, GSK3A inh 1, RGS4 pot inactive, RGS4 inh inactive and KCNQ1 act inactive.
`CCCCNC(=S)NCC(c1ccccc1)c1c[nH]c2ccccc12` (configuration not stated) gave KCNK3 inh inactive, PolyA inh inactive, KCNQ1 block inactive, hERG rescue -12, GSK3beta inhib 1, Dyrk1A ADPGlo 2, GSK3A inh -3, RGS4 pot inactive, RGS4 inh inactive and KCNQ1 act inactive.
`Cc1cc(Cl)ccc1OC(C)C(=O)Nc1ccc(S(=O)(=O)Nc2cnc3ccccc3n2)cc1` (configuration not stated) gave KCNK3 inh inactive, PolyA inh inactive, KCNQ1 block inactive, hERG rescue -16, GSK3beta inhib 1, Dyrk1A ADPGlo 6, GSK3A inh -4, RGS4 pot inactive, RGS4 inh inactive and KCNQ1 act inactive.
`CCC(CC)C(=O)Nc1cccc(-c2nc3ccccc3o2)c1` gave KCNK3 inh inactive, PolyA inh inactive, KCNQ1 block inactive, hERG rescue -13, GSK3beta inhib 1, Dyrk1A ADPGlo -4, GSK3A inh 1, RGS4 pot inactive, RGS4 inh inactive and KCNQ1 act inactive.
Screening CC1CCC(NC(=O)C(Cc2ccccc2)n2cccc2)CC1 (configuration not stated) returned KCNK3 inh inactive, PolyA inh inactive, KCNQ1 block inactive, hERG rescue -14, GSK3beta inhib 0, Dyrk1A ADPGlo 0, GSK3A inh -1, RGS4 pot inactive, RGS4 inh inactive and KCNQ1 act inactive.
For CC1Cc2ccccc2N1C(=O)COC(=O)c1c2c(nc3ccccc13)CCCCC2 (configuration not stated) the results were KCNK3 inh inactive, PolyA inh inactive, KCNQ1 block 7*, hERG rescue -30, GSK3beta inhib -5, Dyrk1A ADPGlo -1, GSK3A inh 0, RGS4 pot -9*, RGS4 inh inactive and KCNQ1 act inactive.
`CC(OC(=O)COc1ccccc1Cc1ccccc1)C(=O)N(C)c1ccccc1` (configuration not stated) gave KCNK3 inh inactive, PolyA inh inactive, KCNQ1 block inactive, hERG rescue -18, GSK3beta inhib -3, Dyrk1A ADPGlo -1, GSK3A inh -1, RGS4 pot inactive, RGS4 inh inactive and KCNQ1 act inactive.
CCOC(=O)c1sc(N(Cc2ccccc2)C(=O)COC(=O)c2ccc(O)cc2)nc1C was read as KCNK3 inh inactive, PolyA inh inactive, KCNQ1 block inactive, hERG rescue -13, GSK3beta inhib 1, Dyrk1A ADPGlo 4, GSK3A inh 1, RGS4 pot inactive, RGS4 inh inactive and KCNQ1 act inactive.
Screening COc1ccccc1CNC(=O)COC(=O)c1cc(-c2ccco2)nc2ccccc12 returned KCNK3 inh inactive, PolyA inh inactive, KCNQ1 block inactive, hERG rescue -12, GSK3beta inhib 5, Dyrk1A ADPGlo -2, GSK3A inh -1, RGS4 pot inactive, RGS4 inh inactive and KCNQ1 act inactive.
O=C1c2ccccc2C(Nc2cccc(C(F)(F)F)c2)N1Cc1ccco1 (configuration not stated) was read as KCNK3 inh inactive, PolyA inh inactive, KCNQ1 block inactive, hERG rescue -13, Dyrk1A ADPGlo 6, GSK3A inh 0, RGS4 pot inactive, RGS4 inh inactive and KCNQ1 act inactive.
For O=C(Nc1ccccc1)OC1CCC2CC1CCC2OC(=O)Nc1ccccc1 (configuration not stated) the results were KCNK3 inh inactive, KCNQ1 block inactive, hERG rescue -15, GSK3beta inhib -3, Dyrk1A ADPGlo 1, GSK3A inh -3, RGS4 pot inactive, RGS4 inh inactive and KCNQ1 act inactive.

Only part of the results is shown; the hit share may differ from the screen's.
